Screening data (PubChem BioAssay)
NS1 inh – qHTS Assay for Inhibitors of Influenza NS1 Protein Function; S. cerevisiae slowed by influenza A NS1, growth recovery by OD600; Potency, µM (series often up to 46.1 µM), without a hit: top-dose activity, positive = more growth; 270,000 tested, 0.4% active; note: actives are rising curves; nearly all actives have a fitted effect of over 50% in size
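S. cerevisiae expressing influenza A NS1, grown in glucose, washed, then diluted 1:100 into pH 6.0 -URA galactose medium with 23 nl compound. Growth recovery read as OD600; NS1-free strain serves as control.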
Cruzain inh noDet – qHTS Assay for Promiscuous and Specific Inhibitors of Cruzain (without detergent); Cruzipain (Trypanosoma cruzi), P25779; purified cruzain, Z-FR-AMC fluorescence, no detergent; Potency, µM, inactives show max response, negative = inhibition, usual class: inhibitors; 200,000 tested, 2.3% active; AID 1476, 2009; active = well fitted curve in the direction sought with a large enough effect; inconclusive = small, poorly fitted or top-dose-only effect, or another doubt; inactive = no such curve, though single readings can be large; an effect the other way counts as inactive or inconclusive;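 note: plate controls were enzyme without inhibitor for no effect and buffer without enzyme for full effect; nearly all actives have a fitted effect of over 40% in size; top concentration of the series not given in the record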
Target sequence (P25779 123-467 limits assumed): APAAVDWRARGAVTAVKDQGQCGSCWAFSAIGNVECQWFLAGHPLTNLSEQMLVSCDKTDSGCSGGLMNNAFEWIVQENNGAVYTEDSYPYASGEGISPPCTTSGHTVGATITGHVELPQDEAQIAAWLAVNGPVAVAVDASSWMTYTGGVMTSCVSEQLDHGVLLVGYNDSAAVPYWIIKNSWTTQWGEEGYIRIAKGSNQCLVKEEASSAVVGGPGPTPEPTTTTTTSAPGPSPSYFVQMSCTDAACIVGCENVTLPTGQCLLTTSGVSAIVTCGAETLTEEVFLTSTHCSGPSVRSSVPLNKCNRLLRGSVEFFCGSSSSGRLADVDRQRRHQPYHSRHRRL
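Purified cruzain at 1.5 nM, pre-incubated 15 min with compound at room temperature in 100 mM sodium acetate pH 5.5, 5 mM DTT, 0.00005% Triton X-100. Reaction started with 2 uM Z-FR-AMC; AMC fluorescence increase over 60 s gives rate.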
StopGo reporter – High Throughput Screening for Foot and Mouth Disease Virus Antivirals. 410,000 tested, 1.2% active. human cells with a luciferase reporter of 2A StopGo recoding; control for the full effect not named in the record. Potency, µM (titrated, usually from 57.9 µM), inactives show at the top dose signal change, negative = less light. AID 1159524, 2015; active = well fitted falling curve with a large enough effect; inconclusive = small, poorly fitted or top-dose-only effect; inactive = no such curve, though single readings can be large or run the other way; tested in HEK293T cells; note: % is set by controls: 0 for no effect and ±100 for the full control effect; nearly all actives have a fitted effect of over 45% in size; luciferase light after 4 h
SARS PLpro yeast – qHTS of Yeast-based Assay for SARS-CoV PLP. AID 485353, 2010. Potency, µM (doses to about 32.9 µM), inactives show at the top dose activity, positive = growth rescue. 330,000 tested, 0.19% active. S. cerevisiae expressing SARS-CoV PLpro, growth rescue; control for the full effect not named in the record; note: 0% is about no effect; nearly all actives have a fitted effect of over 55% in size; growth read by luminescence after 48 h
LASV entry inh – qHTS for Inhibitors of binding or entry into cells for Lassa Virus; Lassa virus pseudotype entry inhibition, cell reporter; control for the full effect not named in the record; Potency, µM (series often up to 37.9 µM), for the others: at the highest dose activity change, negative = inhibition, hits mostly inhibitors; 300,000 tested, 1.2% active; AID 540256, 2011; active means well fitted inhibition curve with a large enough effect; inconclusive means small, poorly fitted or top-dose-only effect, or effect the other way; inactive means flat fitted curve, though single readings scatter; tested in HEK293 cells; note: % is set by controls: 0 for no effect and ±100 for the full control effect; nearly all actives have a fitted effect of over 50% in size; luciferase read-out
Cruzain inh Det – qHTS Assay for Promiscuous and Specific Inhibitors of Cruzain (with detergent); AID 1478, 2009; Potency, µM, for inactives: max response, negative = inhibition, actives largely listed as inhibitors; Cruzipain (Trypanosoma cruzi), P25779; 200,000 tested, 0.43% active; purified cruzain, Z-FR-AMC fluorescence, 0.01% Triton; active = well fitted curve in the direction sought with a large enough effect; inconclusive = small, poorly fitted or top-dose-only effect, or another doubt; inactive = no such curve, though single readings can be large; an effect the other way counts as inactive or inconclusive;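 note: plate controls were neutral wells for no effect and buffer without enzyme for full effect; nearly all actives have a fitted effect of over 40% in size; top concentration of the series not given in the record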
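Compounds were screened in titration against cruzain (1.5 nM) with 0.01% Triton X-100 to counter colloidal aggregation. Activity was the AMC fluorescence increase over 60 s after adding 2 uM Z-FR-AMC at pH 5.5.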
MARV entry inh – qHTS for inhibitors of binding or entry into cells for Marburg Virus. Marburg virus pseudotyped entry inhibition, cell reporter; control for the full effect not named in the record; about a third of the inactives were read at about 46 µM. 300,000 tested, 1.8% active. Potency, µM (top dose mostly 37.8 µM), for the others: top-dose activity change, negative = inhibition, most hits filed as inhibitors; active = well fitted inhibition curve with a large enough effect; inconclusive = small, poorly fitted or top-dose-only effect, or effect the other way; inactive = flat fitted curve, though single readings scatter; tested in HEK293 cells; about a fifth of its hits are not listed in these tables; note: % is set by controls: 0 for no effect and ±100 for the full control effect; luciferase read-out
RE007 growth inh – qHTS Assay for Inhibitors of the HIV-1 protein Vpr | Potency, µM (series often up to 92.2 µM), inactives show at the highest dose activity change, negative = less growth | AID 651644, 2012 | S. pombe RE007 Vpr strain, BacTiter-Glo ATP luminescence, 24 h; control for the full effect not named in the record | 360,000 tested, 0.21% active; active = well fitted falling curve with a large enough effect; inconclusive = small, poorly fitted or top-dose-only effect; inactive = no such curve, though single readings can be large or run the other way;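 note: % is set by controls: 0 for no effect and ±100 for the full control effect; nearly all actives have a fitted effect of over 50% in size; the assay follows cell death caused by Vpr and the record does not say whether a fall means rescue or toxicity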
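Fission yeast strain RE007, carrying one chromosomally integrated HIV-1 vpr copy, was seeded at OD 0.01 in PMG+AL medium with 23 nL pinned compound. After 24 h at 30 °C and 99% humidity, viability was read by BacTiter-Glo luminescence.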
Active calls of the source: *; ? = inconclusive; / = no result given; & = joins results of further samples; [ ] = dose if it differs, or a comment. Unless noted, calls come from the whole dose curve; as a rule, active means well fitted rising curve with a large enough effect; inconclusive means small, poorly fitted or top-dose-only effect; inactive means no such curve, though single readings can be large or run the other way. Potency is the fitted concentration of half-maximal effect.

SMILES | NS1 inh | Cruzain inh noDet | StopGo reporter | SARS PLpro yeast | LASV entry inh | Cruzain inh Det | MARV entry inh | RE007 growth inh
COc1cccc(NC(=O)Nc2nnc(Cc3ccc(OC)c(OC)c3)s2)c1 | 3% | / | -22% | -2% | ? | / | ? | -3%
CCOC(=O)C1(Cc2ccc(Cl)cc2)CCN(C(=O)C2=NNC(=O)CC2)CC1 | -2% | / | 1% | 0% | ? | / | 23%[46.1 µM] | 5%
O=C(Oc1ccc(C(=S)N2CCOCC2)cc1)c1cc([N+](=O)[O-])cc([N+](=O)[O-])c1 | 3% | / | -1% | 1% | 15%[46.1 µM] | / | 14%[46.1 µM] | 16%
O=C(CSc1cccc[n+]1[O-])NCCCc1ccccc1 | / | / | -15% | 1% | 0%[46.1 µM] | / | 18%[46.1 µM] | -1%
CCC(C)NC(=O)C1(C)CCC(=O)N1CCc1ccc(OC)c(OC)c1 (stereo not given) | -6% | -1% | 13% | -1% | -32%[14.3 µM] | 0.7% | -6% | -7%
Cc1cccc(C)c1OC(=O)CSc1nnc(-c2ccccc2O)o1 | 3% | -28% | 4% | 13% | 19% | -2.9% | -3% | 3%
Cc1c(NS(=O)(=O)c2cccc(C(=O)O)c2)c(=O)n(-c2ccccc2)n1C | -1% | 3% | 2%&-17% | -5% | 13%[46.1 µM] | -0.7% | -7%&-7%[46.1 µM] | -6%
O=S(=O)(NC1CCCC1)c1ccc(S(=O)(=O)N2CCCN(Cc3ccccc3)C2)cc1 | -40% | 8% | 0% | -6% | ? | -1.3% | 5.8µM* | 0%
O=C(CCSCCc1ccccn1)Nc1ccc(Cc2ccncc2)cc1 | / | / | -3% | 1% | ? | / | 12%[46.1 µM] | -22%
COc1ccc(S(=O)(=O)NCCc2cn3cccc(C)c3n2)cc1OC | 2% | 10% | -23% | -6% | / | 8.6% | / | -4%
Cc1ccc(OCCn2nnc3sc4c(c3c2=O)CCC(C(C)(C)C)C4)cc1 (stereo not given) | / | -5% | -10% | / | 22%[46.1 µM] | -2.1% | 18%[46.1 µM] | /
CCCOc1ccc(-c2nc(C#N)c(N3CCN(C)CC3)o2)cc1 | -48% | -9% | -15% | -7% | 6% | 1.3% | -3% | -22%
C=CCC1CCC/C(=N\NS(=O)(=O)c2ccc(C)cc2)C1 (stereo not given) | 23% | / | 3% | -7% | ? | / | -10%[46.1 µM] | 0%
Cc1ccc(S(=O)(=O)NCCCCCC(=O)Nc2ccccn2)cc1 | -7% | 0% | 20% | 2% | -3% | -1.6% | -4% | 9%
CCc1c(C)nc(N2CCN(Cc3ccccc3)CC2)[nH]c1=O | -1% | -5% | 0% | -2% | 1% | 2.9% | 2% | 3%
Cc1cc(C)c(C(=O)CC(=O)c2cccnc2)c(C)c1 | / | / | -16% | / | -1%[46.1 µM] | / | -4%[46.1 µM] | -6%
O=C1CN(C(=O)CSc2nncn2-c2ccccc2)c2ccccc2N1 | -2% | 3% | -12% | 0% | ? | 4.6% | 1% | -8%
CCC1CCCCN1CCCNC(=O)c1ccc2c(c1)c(C)c(C)n2CC (stereo not given) | -7% | 8% | -13%&-12% | 0% | ? | 13% | ? | 4%
COC(=O)CSc1nnc(CNC(=O)c2cccs2)n1-c1cccc(C)c1 | 0% | 3% | -5% | 5% | 10% | 4.2% | -13% | 34%
CCOC(=O)CNC(=O)c1ccc(Br)s1 | -3% | / | -7% | 0% | / | / | / | -6%
Cc1ccc(S(=O)(=O)N(C)CC(=O)OCC(=O)NC(c2ccccc2)c2ccccc2)cc1 | -8% | 26% | -23% | 7% | 0% | -4.3% | 1%[46.1 µM] | -3%
COc1ccccc1CNC(=O)C(=O)NCC1CCCN1S(=O)(=O)c1cccs1 (stereo not given) | / | / | -16% | 1% | -9% | / | 24% | 5%
CN1CCN(C2Cc3ccccc3Sc3ccc(Cl)cc32)CC1 (stereo not given) | -35% | 7% | ? | / | 10µM* | -4.0% | 16µM* | -1%[18.4 µM]
CC1CC(C)CN(C(=O)COC(=O)/C=C/c2cccc([N+](=O)[O-])c2)C1 (stereo not given) | / | / | -18% | -2% | -3% | / | 2%[46.1 µM] | 12%
COc1ccc(CNC(=O)C(c2ccco2)N(C(=O)c2csnn2)c2cccc(C)c2C)cc1 (stereo not given) | -8% | 7% | -18% | 5% | ? | -3.5% | -31% | 2%
O=C(O)c1ccc(COc2cccc(CO)c2)cc1 | 3% | 1% | / | 1% | 22% | 1.7% | -1% | -13%
CSc1ccc(Cn2nnc(C(=O)Nc3ccc(C)c(C)c3)c2N)cc1 | -4% | 25µM* | 35%[activator] | -5% | / | 4.6% | / | 9%
CCCOc1ccc(N2C(=O)C3C(C(C)C)NC4(C(=O)c5ccccc5C4=O)C3C2=O)cc1 (stereo not given) | 5% | 29% | 2% | -3% | 1% | -1.7% | 27% | 1%
CCNC(=S)N1CC(C)OC(C)C1 (stereo not given) | 4% | 4% | 10% | -2% | -3% | 7.7% | ? | 7%
COc1ccc(CNC(=O)CN(c2ccc(OC)cc2)S(=O)(=O)c2c(C)[nH]c(=O)[nH]c2=O)cc1 | -13% | -7% | -12%&-6% | 1% | 29%[46.1 µM] | 1.4% | 7%[46.1 µM] | -11%
CN(Cc1cn(C)nc1-c1ccccc1F)CC1CCCCO1 (stereo not given) | -1% | / | -9% | 0% | / | / | / | -12%
COc1ccc(OC)c(NC(=O)C2CC(=O)n3ncnc3N2)c1 (stereo not given) | 23% | 8% | 16% | -3% | 9% | 4.0% | -12% | 16%
CCSc1nc(C)cc(C)c1S(=O)(=O)c1ccccc1C | -19% | -11% | ? | -8% | 5% | -12% | -21% | -6%
CCc1ccccc1S(=O)(=O)c1c(C)cc(C)nc1Cl | -4% | / | -29% | 0% | / | / | / | 5%
COc1ccc(C(=O)CCC(=O)N2CCN(c3cc(C)ccc3C)CC2)cc1 | -40% | / | ? | 0% | / | / | / | -4%
O=C(CCn1cnc2ccccc2c1=O)Nc1nc2c(s1)CCCC2 | -13% | -9% | -4% | 2% | 0% | -2.0% | 5% | 13%
CN1CCN(C(=O)CC2(CC(=O)O)CCCC2)CC1 | / | / | -3% | -1% | -3% | / | -14%[14.2 µM] | 4%
CCOC(=O)c1cc(NC(=O)Nc2ccccc2OC)c(C)nc1C | -11% | 19% | -30% | -8% | -17% | -1.0% | -1% | -14%
CC1=CN2C(=N)/C(=C/c3ccc([N+](=O)[O-])o3)C(=O)N=C2S1 | -23% | 19% | 25µM* | -95% | -14% | -10% | ? | 32µM*
O=C(NCc1ccc(Cl)cc1)C1CCCN(c2ncnc3onc(-c4ccc(F)cc4)c23)C1 (stereo not given) | / | -12% | -11% | / | -15%[46.1 µM] | -1.6% | / | /
CCOC(=O)N1CCC(N(CCOC)C(=O)Nc2ccc(Cl)cc2)CC1 | -86% | 13% | -6% | -13% | -7% | -2.6% | -14% | 12%
COc1ccc(C2C(C#N)=C(N)N(c3ccccc3C#N)C3=C2C(=O)CCC3)cc1CN1CCCC1 (stereo not given) | -2% | -18% | -20% | -14% | 1% | -5.7% | 5.8µM* | 13%
O=C(Nc1ccc(Cl)cc1)C1CCCN(S(=O)(=O)c2ccc3[nH]c(=O)ccc3c2)C1 (stereo not given) | / | -17% | -28% | / | 10%[46.1 µM] | 2.7% | / | /
O=C(NC(c1ccccc1)c1ccccc1)c1ccc(S(=O)(=O)C(F)F)cc1 | 9% | -2% | ? | 0% | 3% | -2.4% | -5%[46.1 µM] | 1%
Cc1cc2c(cc1C)C(c1cc(Br)ccc1F)CC(=O)N2 (stereo not given) | 10% | -8% | ? | -12% | ? | -1.2% | ? | -11%
CSCCNC(=O)c1ccc(OC2CCN(CCc3ccccc3)CC2)cc1 | 1% | / | 6% | 0% | / | / | / | 9%
Cc1ccc(S(=O)(=O)NC2CC(C)(C)NC(C)(C)C2)c(C)c1C | -3% | / | -6% | 7% | 2% | / | -30% | 8%
FC(F)(F)c1cnc(Sc2nc3nccc(-c4ccc(Cl)cc4)n3n2)c(Cl)c1 | 7% | 17% | 0% | 7% | ? | -7.9% | ? | -23%
O=C(Nc1ccccc1)Nc1n[nH]c2nnc(-c3ccccc3)c(-c3ccccc3)c12 | -37% | / | ? | -7% | / | / | / | 4%
O=C1/C(=C\c2ccc(Cl)cc2)CCC1CNc1ccc(Cl)cc1 (stereo not given) | / | / | -10% | / | -12% | / | -1% | 8%
Cc1cc(=O)[nH]c(CCl)n1 | -1% | / | -11% | 0% | 10%[46.1 µM] | / | ? | 5%
CCOc1ccc(C(=O)NCCN(C)C)cc1 | 3% | -5% | 7% | 4% | -25%[14.3 µM] | 3.6% | 0% | -17%
CN1CCCC(OC(=O)c2ccc(C#N)cc2)C1 (stereo not given) | 3% | / | -19% | 0% | / | / | / | 7%
O=C(CN1C(=O)NC2(CCCC2)C1=O)N1CCN(S(=O)(=O)c2cccc(C(F)(F)F)c2)CC1 | / | / | -18% | 10% | -1% | / | 7% | -4%
Cc1ccc2c(=O)cc(C(=O)Nc3sc4c(c3C(=O)NCc3ccccc3)CCCC4)oc2c1C | / | -5% | -19% | / | 5%[46.1 µM] | -0.1% | 12%[46.1 µM] | /
O=C(NCCc1ccccc1)C(=O)NN=C1CCCC1 | 5% | -5% | 25% | -4% | -14% | 3.2% | -5% | 7%
O=C(NCCO)c1cc2ccccc2c(=O)s1 | -8% | -1% | 8% | -2% | 20% | -7.4% | ? | -9%

Hits appear at their usual frequency. About 4.7% of those tested had a hit in this group.
